Bfl-1 A1 inh: inhibitors of the anti-apoptotic protein A1, read as caspase activation | MEF A1-2A-BIM cells, Caspase-Glo 3/7 luminescence, 3 h; percent of clofoctol response, vehicle zero | caspase activation, % (concentration not given with the values) | 330,000 compounds, 0.066% hits;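 active means over half of replicate activation scores above 10%, or exactly half above 10 with the replicate mean above 10; inconclusive means replicate mean below 10 yet half the replicates above 10; inactive means over half of replicates below 10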;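 further: wells of about 30 µL received 50 nL stock; many hits fall short of the cut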
Beta apoptosis: blocks beta cell apoptosis; INS-1E cytokine-induced death, ATP luminescence, 48 h; percent of positive-control rescue, neutral wells zero; 300,000 compounds, 0.8% hits; protection from apoptosis, % (no concentration beside the values);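 active means all replicates at 75% or more, or half of them and the mean; inconclusive means half reach 75% but not the mean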;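 further: 0% = cytokine-treated negative control wells and 100% = positive control rescue; higher means more ATP so stronger rescue from cytokine killing; wells of about 40 µL received 100 nL stock; the first replicate is given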
Calb FLC: affects C. albicans growth with fluconazole. C. albicans CaCi-2 (fluconazole-resistant clinical isolate) + fluconazole, Alamar Blue growth, 48 h. growth inhibition, % (no concentration beside the values). 300,000 compounds, 0.57% hits;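 active means most replicates above 75%; inconclusive means exactly half above 75%; inactive means most below 75%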;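 further: all wells also contain fluconazole at 8 µg/ml as a sub-toxic cotreatment; 0% = median of DMSO wells and 100% = median of geldanamycin control wells; wells of about 8 µL received 7.5 nL stock; the first replicate is given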
Vif TR-FRET: inhibitors of Vif binding to APOBEC3G peptide, primary screen, biochemical, TR-FRET, GST-Vif 1-94, biotin-A3G peptide, dose response retest (AID 1117319) | TR-FRET GST-Vif / biotin-A3G peptide binding; higher % means a stronger effect; test concentration not given here; strong numbers were not always called active | inhibition, %, or IC50 in µM where a hit was titrated | 260,000 compounds, 0.57% hits;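 active means above the screen mean plus three standard deviations and confirmed in dose response; inconclusive means results disagree or hit not tested in dose response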;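 further: Vif residues 1-94 fused to GST binding biotinylated APOBEC3G peptide 110-148; 0% = full assay without inhibitor and 100% = GST in place of GST-Vif; retest series ran down from 100 µM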
RanGTP-Impb inh: disruptors of Ran-importin-beta complex formation – biochemical, FRET, CFP-Ran, YFP-importin-beta, homogeneous, primary screen. cell-free CFP-Ran/YFP-importin-beta FRET ratio. inhibition, % (test concentration not listed). 300,000 compounds, 1.1% hits. AID 2216;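 active means most replicates above 15%; inconclusive means exactly half above 15%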;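 further: 0% = DMSO wells and 100% = Ran loaded with GDP instead of GTP; wells of about 40 µL received 100 nL stock; the first replicate is given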
AF4-AF9 inh: blocks AF4 peptide binding to human AF9. 350,000 compounds, 0.47% hits. inhibition, % at 10 µM. AID 651704. AlphaScreen, biotin-AF4 peptide binding to FLAG-AF9. P42568;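 active means every replicate reaching a set inhibition limit, whatever the replicate mean, cut at about 25% in these data; inconclusive means mean inhibition reaches that limit but some replicates miss it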;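 further: 0% = plate neutral control median and 100% = total signal loss; the record names both 10 and 1 µM as test concentration; the first replicate is given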
Target sequence (P42568 whole entry, looked up): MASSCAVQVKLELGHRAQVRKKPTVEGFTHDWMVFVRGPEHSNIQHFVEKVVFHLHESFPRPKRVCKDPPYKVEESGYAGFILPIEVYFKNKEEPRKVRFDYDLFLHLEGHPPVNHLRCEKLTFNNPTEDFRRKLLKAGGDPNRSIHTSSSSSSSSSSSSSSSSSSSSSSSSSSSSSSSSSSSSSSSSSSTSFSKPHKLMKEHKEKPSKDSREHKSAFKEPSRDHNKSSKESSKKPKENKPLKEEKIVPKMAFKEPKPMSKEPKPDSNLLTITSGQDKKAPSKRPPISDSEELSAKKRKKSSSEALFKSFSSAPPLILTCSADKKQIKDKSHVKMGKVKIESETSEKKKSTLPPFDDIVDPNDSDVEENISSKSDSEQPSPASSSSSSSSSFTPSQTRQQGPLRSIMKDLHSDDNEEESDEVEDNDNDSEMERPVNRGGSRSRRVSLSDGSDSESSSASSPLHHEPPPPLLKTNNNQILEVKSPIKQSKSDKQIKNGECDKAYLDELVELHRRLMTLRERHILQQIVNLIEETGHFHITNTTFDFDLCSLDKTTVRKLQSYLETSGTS
T cruzi inh: T. cruzi replication inhibition; T. cruzi beta-gal in NIH3T3, luminescence, 90 h; inhibition, % (concentration not given with the values); 300,000 compounds, 1.4% hits; AID 1885;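 active means mean inhibition across valid replicates above about 55%, limit read from the data; inconclusive means mean below that limit but half or more replicates reach it; inactive means mean below it, under half of replicates reach it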;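 further: signal also drops with host cell toxicity which is not excluded here; 0% = plate median of DMSO wells and 100% = zero luminescence signal; higher percent means less beta-gal luminescence so fewer parasites; stock transfer was 50 nL into about 50 µL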
rRNA inh HTS: inhibits bacterial ribosomal RNA function over humanized ribosomes | E. coli WT GFP vs humanized-ribosome RFP mutants, fluorescence, 24 h; active compounds read low; DMSO median 0, no signal -100 | GFP signal change (wild-type ribosome), % (concentration not given with the values) | 350,000 compounds, 1.6% hits | AID 720706;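 active means significant combined selectivity score with lowered wild-type GFP, culture density cut under 30%, mutant RFP and density less affected; inactive means any of these conditions unmet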; further: one replicate is shown; some compounds called inactive have numbers as strong as hits
rRNA inh HTS OD600: further read-out of rRNA inh HTS, marked with its call; OD600 change, %; measured here: OD600 growth;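 optical density of the mix in the first replicate; 0 = DMSO median and -100 = no signal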
rRNA inh HTS RFP: also measured in rRNA inh HTS; calls as there; RFP signal change, %; measured here: RFP humanized mutant strains;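 first replicate; 0 = DMSO median and -100 = no signal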
Starred values were filed as active, the others as inactive; ? = inconclusive; . = no result given.

SMILES	Bfl-1 A1 inh	Beta apoptosis	Calb FLC	Vif TR-FRET	RanGTP-Impb inh	AF4-AF9 inh	T cruzi inh	rRNA inh HTS	rRNA inh HTS OD600	rRNA inh HTS RFP
CCN(C(=O)CSc1nc2cc(Cl)ccc2c(=O)n1Cc1ccco1)C1CCS(=O)(=O)C1 (centres undefined)	0.2	3	8	-8%	1.8	3.6	-5	7	2	-1.2
CCCCOc1cccc(C2C(C(=O)c3ccc(C)o3)=C(O)C(=O)N2c2nnc(C)s2)c1 (centres undefined)	.	.	-3	-5%	-7.3	-0.2	0	4	0	1.1
Cc1cccc([C@@H]2[C@@H]3C(=O)N(Cc4ccccc4)C(=O)[C@@H]3[C@]3(CC(C)C)C(=O)N(c4cccc(Cl)c4)C(=O)N23)c1	-0.4	13	13	.	?	-0.5	-4	11	7	6.6
COc1ccc(N2CCN(CC(O)COc3c(OC)cccc3OC)CC2)cc1 (centres undefined)	0.1	-2	-21	-6%	0.9	11	6	6	5	-1.5
COc1ccc(OC)c(NC(=O)CSc2nc(N)c(-c3ccccc3)c(=O)[nH]2)c1	-2.1	0	-2	7%	-0.7	.	-7	-13	-11	1.8
CCOC(=O)CSc1nnc(Cc2ccc(OC)cc2)n1-c1ccccc1	3.6	-7	-10	4%	-1.4	.	-2	.	.	.
CN(C)CCC(=O)N1c2ccccc2Sc2ccc(C(F)(F)F)cc21	0.5	-3	3	-17%	1.2	1.9	3	-12	-12	12
Cc1ccc2[nH]c(=O)c(CN(CC3CCCO3)S(=O)(=O)c3cccc4nsnc34)cc2c1 (centres undefined)	.	.	8	?	6.6	.	3	.	.	.
NS(=O)(=O)c1ccc(-c2ccc(/C=C3\SC(=S)N(C4CCS(=O)(=O)C4)C3=O)o2)cc1 (centres undefined)	0.3	-10	23	8%	-33	6.7	6	11	1	9.7
CCc1nnc(NC(=O)CSc2nc3ccccc3s2)s1	0.9	-5	-2	-6%	-0.9	.	-13	.	.	.
CCn1c(Cc2ccccc2)nnc1SCC(=O)NC1CCCC1	1.2	-2	-6	0%	-1.2	-2.2	-4	6	2	-0.5
COc1ccc(S(=O)(=O)N2CCN(c3nn(C)c(=O)n(C)c3=O)CC2)cc1	-0.7	9	.	0%	.	0.4	.	.	.	.
CC1(C)OC(=O)C(=NNc2ccc(Cl)cc2)C(=O)O1	0.5	0	-13	0%	4.0	.	-12	.	.	.
COc1ccc(NS(=O)(=O)c2cccc(C(=O)OCC(=O)Nc3cc(C)on3)c2)cc1	0.6	2	-2	-4%	-1.9	.	-9	.	.	.
COc1ccc(N2CCN(C(=O)CSc3ccccc3)CC2)cc1	-1.0	3	-3	30%	-3.9	.	9	.	.	.
COc1nc(C)cc(C)c1S(=O)(=O)c1ccccc1C	0.4	-5	-4	.	-2.8	-0.1	0	-1	-11	1.0
CCN(CC)C(=O)COc1ccc(/C(C)=N/NC(=O)c2ccccc2-n2cccc2)cc1	0.0	.	3	-2%	-0.3	2.4	-6	1	2	0.1
CC(C)Nc1nc(-c2ccccc2)nnc1-c1ccccc1	-0.5	5	27	-8%	-0.2	-1.1	20	4	-10	-4.7
COc1ccccc1OCCn1nnc2ccccc21	-0.1	-5	-7	-4%	-2.9	-1.5	12	11	10	-6.0
COCCN(C(=O)CSc1nc2ccc(OC)cc2[nH]1)c1c(N)n(Cc2ccccc2)c(=O)[nH]c1=O	0.5	-4	3	5%	7.3	0.1	-2	14	4	1.1
O=C(CCN1C(=O)/C(=C/c2ccccc2)SC1=S)N1CCCCCC1	-0.5	10	6	0%	1.1	-2.2	-5	11	5	5.3
CCOC(=O)c1sc(=NC(=O)c2ccccc2Br)n(C)c1C	-4.6	.	6	-16%	-0.7	-3.5	10	15	7	3.4
CC1CCN(S(=O)(=O)c2ccc3c(c2)oc(=O)n3C)CC1	-2.0	.	-2	.	4.1	-3.3	5	9	14	4.1
COC(=O)/C=C1\SC(=NC(=O)c2ccc(C)cc2)NC1=O	0.5	-4	-14	?	4.2	-1.1	-13	17	15	2.2
C=CCNc1c2c(nc3ncnn13)CC(C)CC2 (centres undefined)	2.4	-3	-15	20%	0.4	-2.3	-17	5	5	0.9
COc1cc2cc(Oc3ccc4ccc(=O)oc4c3)c(=O)oc2cc1OC(=O)C=C(C)C	1.8	-2	1	.	5.9	.	-13	.	.	.
C=CCn1c(Cc2cccs2)nnc1SCC(=O)Nc1ccc(OC)c(OC)c1	-0.5	-1	0	-6%	-0.7	.	-12	.	.	.
O=C(Nc1nnc(-c2ccccc2Cl)s1)c1ccccc1F	-2.4	0	5	-20%	-3.3	-15	-14	6	8	1.1
Cc1ccc(C(=O)CCC(=O)Nc2cccc(C(F)(F)F)c2)cc1C	0.6	7	-9	-6%	4.2	.	-9	.	.	.
CC(C)(C)NS(=O)(=O)c1ccc(OCC(=O)NCCC2=CCCCC2)cc1	-0.5	-2	3	3%	3.2	.	15	-1	2	0.2

Ten consecutive compounds from above, for reference:
SMILES	Bfl-1 A1 inh	Beta apoptosis	Calb FLC	Vif TR-FRET	RanGTP-Impb inh	AF4-AF9 inh	T cruzi inh	rRNA inh HTS	rRNA inh HTS OD600	rRNA inh HTS RFP
COCCN(C(=O)CSc1nc2ccc(OC)cc2[nH]1)c1c(N)n(Cc2ccccc2)c(=O)[nH]c1=O	0.5	-4	3	5%	7.3	0.1	-2	14	4	1.1
O=C(CCN1C(=O)/C(=C/c2ccccc2)SC1=S)N1CCCCCC1	-0.5	10	6	0%	1.1	-2.2	-5	11	5	5.3
CCOC(=O)c1sc(=NC(=O)c2ccccc2Br)n(C)c1C	-4.6	.	6	-16%	-0.7	-3.5	10	15	7	3.4
CC1CCN(S(=O)(=O)c2ccc3c(c2)oc(=O)n3C)CC1	-2.0	.	-2	.	4.1	-3.3	5	9	14	4.1
COC(=O)/C=C1\SC(=NC(=O)c2ccc(C)cc2)NC1=O	0.5	-4	-14	?	4.2	-1.1	-13	17	15	2.2
C=CCNc1c2c(nc3ncnn13)CC(C)CC2 (centres undefined)	2.4	-3	-15	20%	0.4	-2.3	-17	5	5	0.9
COc1cc2cc(Oc3ccc4ccc(=O)oc4c3)c(=O)oc2cc1OC(=O)C=C(C)C	1.8	-2	1	.	5.9	.	-13	.	.	.
C=CCn1c(Cc2cccs2)nnc1SCC(=O)Nc1ccc(OC)c(OC)c1	-0.5	-1	0	-6%	-0.7	.	-12	.	.	.
O=C(Nc1nnc(-c2ccccc2Cl)s1)c1ccccc1F	-2.4	0	5	-20%	-3.3	-15	-14	6	8	1.1
Cc1ccc(C(=O)CCC(=O)Nc2cccc(C(F)(F)F)c2)cc1C	0.6	7	-9	-6%	4.2	.	-9	.	.	.

Following part
SMILES	Bfl-1 A1 inh	Beta apoptosis	Calb FLC	Vif TR-FRET	RanGTP-Impb inh	AF4-AF9 inh	T cruzi inh	rRNA inh HTS	rRNA inh HTS OD600	rRNA inh HTS RFP
O=C(Cc1ccccc1F)Nc1ccc2c(c1)CCC2	-5.5	.	-1	.	-5.3	-0.5	-25	3	-17	0.1
O=C(O)CCc1ccc(-c2cccs2)n1CCc1ccccc1	0.3	-2	11	10%	-2.3	0.0	-12	-23	-25	-0.9
O=S(=O)(c1cccc(C(F)(F)F)c1)N1CCN(CC(O)COCc2ccccc2)CC1 (centres undefined)	1.0	-3	.	.	.	1.9	.	-23	-25	2.2
Cn1cc(CNCc2cnc3ccccn23)c(-c2ccc(Oc3ccccc3)cc2)n1	-8.1	3	-4	-8%	1.0	3.7	0	-24	-42	-4.9
Cc1cc(C)nc(N/N=C/c2ccccc2OCc2ccccc2)n1	-1.6	5	-17	.	-1.4	5.0	0	3	14	3.5
COc1ccc(C(=O)Nc2ccnn2C2CCN(C3CCC3)CC2)cc1	0.6	4	-3	.	2.0	-1.6	-21	14	10	0.6
O=C(NC(Nc1nc2ccc([N+](=O)[O-])cc2s1)(C(F)(F)F)C(F)(F)F)c1ccccc1Cl	-0.8	109*	64	.	-4.6	5.8	55*	-52	-79	-16
CCN1CCN(CCNC(=O)c2ccc(CS(=O)(=O)c3ccccc3C)o2)CC1	0.4	-6	-2	1%	-1.0	.	1	.	.	.
O=C(NCc1ccc(F)cc1)C1CCN(S(=O)(=O)N2CCC3(CC2)OCCO3)CC1	-0.7	-4	-12	-3%	4.8	0.3	2	4	4	-2.0
Cc1nc(SCC(=O)N2CCc3ccccc32)n[nH]1	-0.8	1	-2	-1%	-1.1	.	-4	.	.	.
O=C(CCc1nnc2ccc(NCc3ccccc3)nn12)NC1CCCCC1	0.5	.	-4	.	-4.2	0.2	5	0	14	0.9
CCN(CC(=O)Nc1ccc(NC(C)=O)cc1)C(=O)c1cccc2ccccc12	0.0	5	.	4%	.	0.7	.	1	0	-1.4
O=C1/C(=C/c2ccc(F)cc2)Oc2cc(OC(=O)N3CCOCC3)ccc21	-0.4	-4	-15	.	-4.2	-0.6	4	2	5	-5.3
CCCCC(=O)N1CCN(c2nc3ccc(OCC)cc3s2)CC1	-1.7	.	-1	.	1.5	-2.0	-24	-1	-2	2.2
Cc1cc2nnc(SCC(=O)NC3CCCCC3)n2c(N)n1	0.0	-1	-3	.	?	-3.8	24	4	8	-0.7
CSC1=N/C(=C\c2ccccc2F)C(=O)S1	1.1	-2	1	6%	4.2	.	-14	.	.	.
CC(=O)N1c2ccc(S(=O)(=O)NCC3CCC(C(=O)N4CC(C)CC(C)C4)CC3)cc2CC1C (centres undefined)	-0.1	.	-11	-1%	1.0	-4.7	7	-7	-8	1.9
Cc1ccc(NC(=O)C(C)N=C2NS(=O)(=O)c3ccccc32)cc1 (centres undefined)	0.5	-7	-4	-3%	-1.9	-0.7	-15	13	4	1.5
O=C1OC(=O)C2C1[C@@H]1CC[C@H]2O1 (some centres undefined)	-0.3	-1	.	.	-0.1	-0.3	-42	5	10	-0.6
CCc1ccc(NC(=O)c2nc(S(=O)(=O)Cc3ccccc3)ncc2Cl)cc1	11*	72	10	.	0.2	-0.2	-17	7	6	-1.4
COc1nc(NCCN2CCOCC2)nc(Nc2ccc([N+](=O)[O-])cc2)n1	0.3	-1	44	?	5.5	.	-7	.	.	.
COc1cccc(CNC(=O)N2CCN(S(=O)(=O)c3ccc(Cl)cc3)CC2)c1	0.1	-5	-4	.	3.3	2.4	8	2	5	1.9
CC(=O)Nc1cn(-c2ccccc2)nc1-c1ccccc1	0.8	-7	-10	-4%	1.4	0.3	-7	2	7	0.0
Cc1ccc2c(CN(C)Cc3ccc(Cl)cc3Cl)cc(=O)oc2c1	-2.4	1	-6	.	0.4	-0.8	49	5	8	-0.9

Bioassay records deposited in PubChem by several laboratories.

A portion of the library; count on the stated rates, not on these rows.
